VDR inhibitor = vitamin D3 receptor (human) inhibition; P11473; VDR-SRC2-3 peptide fluorescence polarization, 2 h; Potency, µM, for the others: max response, negative = inhibition, most hits filed as inhibitors; 0.93% of 400,000 active; AID 504847; active means well fitted inhibition curve with a large enough effect; inconclusive means small, poorly fitted or top-dose-only effect, or another doubt; inactive means no such curve, though single readings can be large or run the other way; further: series mostly up to about 120 µM
Target sequence (P11473 whole entry, looked up): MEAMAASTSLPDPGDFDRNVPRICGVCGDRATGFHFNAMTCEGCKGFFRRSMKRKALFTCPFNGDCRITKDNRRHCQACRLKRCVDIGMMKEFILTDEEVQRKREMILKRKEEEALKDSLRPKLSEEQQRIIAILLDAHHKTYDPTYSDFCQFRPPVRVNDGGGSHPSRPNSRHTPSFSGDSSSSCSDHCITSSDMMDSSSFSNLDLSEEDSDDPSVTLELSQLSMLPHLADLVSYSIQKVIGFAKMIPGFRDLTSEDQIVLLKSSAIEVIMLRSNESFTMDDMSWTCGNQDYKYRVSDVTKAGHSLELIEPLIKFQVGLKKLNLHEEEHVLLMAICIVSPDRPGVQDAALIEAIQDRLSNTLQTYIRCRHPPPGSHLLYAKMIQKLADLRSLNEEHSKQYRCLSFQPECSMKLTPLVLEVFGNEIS
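Two reagent solutions held at 4 deg C in the dark were dispensed, compounds pinned at 23 nl, and the mixture incubated 2 h at room temperature. Read-out: fluorescence polarization of VDR–SRC2-3 peptide binding.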
The depositor's hits bear a star; ? = inconclusive; & = joins results of further samples. On the % scale 0 is the no-effect control and ±100 the full control effect; potency means the concentration at half of the fitted maximal effect.

SMILES	VDR inhibitor
C=CCn1c(NC(=O)c2ccc(C)cc2)nc2ccccc21	4%
CC(C)CCNC(=O)CCCC1=NS(=O)(=O)c2ccccc2N1	-9%
CC(C)c1onc(C(=O)N2CCN(c3ccccc3)CC2)c1[N+](=O)[O-]	0%
O=C1CSC(=S)N1c1ccccc1	-16%
CC1CCCCN1CCNC(=O)CN1C(=O)COc2ccccc21 (stereo not drawn)	5%
Cc1cc(OCCn2nc(C(=O)O)c3ccccc3c2=O)ccc1C(C)C	13%
COC(=O)N/N=C(\C)c1cccc(C(F)(F)F)c1	4%
CC1CC(=O)c2cnc(N)nc2C1 (stereo not drawn)	-12%
CCO[C@H]1OC(C(=O)NC2CC2)=C[C@@H](c2coc3ccccc3c2=O)[C@@H]1CCCO	-11%
O=C(Nc1ccc(Oc2ccc(Cl)cc2)cc1)c1ncn[nH]1	5%
CC(C)NC(=O)NC(=O)COC(=O)CCCSc1nc2ccccc2s1	2%
CCc1cccc(NC(=O)c2cc(OC)c(OC)c(OC)c2)c1	-18%
O=c1[nH]c(/C=C/c2ccc([N+](=O)[O-])cc2)c([N+](=O)[O-])c(=O)[nH]1	?
O=C1CN(C(=O)c2ccc(Br)o2)C(c2ccc(F)cc2)c2cc(F)ccc2N1 (stereo not drawn)	0%
C[n+]1ccn(CC(=O)c2ccc(Br)cc2)c1	2%
COc1ccc(C2c3c(ccc4ccccc34)Oc3ncn4nc(Cc5ccccc5)nc4c32)cc1OC (stereo not drawn)	-26%
Cc1ccc(S(=O)(=O)N2CCN(C(=O)CCOc3cc(C)ccc3C)CC2)cc1	-10%
COC(=O)CCN1CCC2CC1c1cc(Cl)ccc12 (stereo not drawn)	-6%
Cc1cc(C(=O)NCc2ccccc2Cl)c2c(C)nn(-c3ccccc3)c2n1	6%
O=C(OCCOc1ccc(F)cc1)c1ccc(S(=O)(=O)N2CCCC2)cc1	-26%
Cc1noc(C(=O)Nc2sc3c(c2C#N)CCC3)c1Cl	-5%
COc1cccc(-n2cc(C(=O)OCc3ccc(Cl)cc3)c3ccccc3c2=O)c1	-1%
O=C(CCCNC(=O)/C(=C/c1ccc(F)cc1)NC(=O)c1ccccc1)OCc1ccccc1	16%
Cc1ccccc1NC(=O)c1oc2c(c1C)-c1nn(Cc3cccc(Cl)c3)cc1CC2	4%
O=C(Nc1cc(S(=O)(=O)N2CCOCC2)ccc1-n1cncn1)c1ccc(Cl)cc1	-9%
COc1cccc(NC(=S)NCc2ccco2)c1	-16%
COc1ccc(-c2nn(-c3ccccc3)cc2C(=O)NC2CCCCC2C)cc1 (stereo not drawn)	-3%
CCC12CN3CC(C)(CN(C1)C3c1ccc(O)cc1O)C2=O (stereo not drawn)	-9%
CC(C)(C)OC(=O)N/N=C\c1ccc(OC(=O)c2cccs2)cc1	3%
CN(Cc1cccc(F)c1)C(=O)c1cc(=O)[nH]c2ccccc12	4%
O=C(NCc1ccccc1)C(=O)NCC1OCCCN1S(=O)(=O)c1cccs1 (stereo not drawn)	13%
COc1cc2oc(=O)cc(-c3ccc(-c4sccc4C=O)cc3)c2c(OC)c1OC	-16%
CCN(CC(=O)Nc1c(F)cccc1F)C(=O)C1CC(=O)N(c2ccccc2OC)C1 (stereo not drawn)	11%
CCCn1c(=N)n(CC(=O)c2ccco2)c2ccccc21	12%
CC(=O)Nc1ccc(NC(=O)C2CCCN2S(=O)(=O)c2cccc(C(F)(F)F)c2)cc1 (stereo not drawn)	2%
Nc1ncnc2c1nc(Cl)n2[C@@H]1O[C@H](CO)[C@@H](O)[C@@H]1O	?
c1ccc(CN(Cc2ccccc2)c2nn[nH]n2)cc1	-6%
O=C(NCc1ccc2c(c1)OCO2)c1ccc(CS(=O)Cc2ccc(Cl)cc2)o1 (stereo not drawn)	-1%
COc1ccc(C=O)cc1Cn1c(C)cc(C)c(C#N)c1=O	-2%
COC(=O)c1ccc(C2C(C(C)=O)=C(C)Nc3ncnn32)cc1 (stereo not drawn)	-17%
COc1ccc(OC)c(NC(=O)c2ccc(NC3=NC4CS(=O)(=O)CC4S3)cc2)c1 (stereo not drawn)	-6%
Cc1nc2ccccc2c(=O)n1/N=C/c1ccc(OC(F)F)cc1	6%
CC(C)Oc1cccc(C(=O)NC(=S)Nc2ccc(N3CCN(C)CC3)cc2)c1	-10%
Cc1ccc(/C(N)=N/OC(=O)C23CC4CC(CC(C4)C2)C3)cc1	27%
COc1ccc2nc(NCc3ccc(OC)c(OC)c3OC)sc2c1	17%
O=C(c1ccncc1)N1CCN(C(=O)c2cccs2)CC1	10%
Cc1cc(C)c2sc(N(Cc3cccnc3)C(=O)CCOc3ccccc3)nc2c1	8%
C=C1CCN(C(C)C(=O)O)S(=O)(=O)c2ccccc21 (stereo not drawn)	-12%&-8%
O=C(CC12CC3CC(CC(C3)C1)C2)Nc1c(F)cccc1F	-6%
CN(C)c1ncc2nc(-c3cc(F)cc(F)c3)c(=O)n(Cc3ccc(F)cc3)c2n1	1%
Next part
SMILES	VDR inhibitor
CCCc1cc(=O)oc2c3c(cc(OCC(=O)NCCN4CCOCC4)c12)OC(C)(C)CC3	0%
CCN(CC)C(=O)CC(c1ccc(OC)cc1)c1c(OC)cc(OC)c2c(-c3ccccc3)cc(=O)oc12 (stereo not drawn)	-3%
COCCN(C(=O)CSc1nc(N)cc(=O)[nH]1)c1c(N)n(Cc2ccccc2)c(=O)[nH]c1=O	10%
COc1cccc(-c2coc3c(C)c4oc(=O)c(CC(=O)O)c(C)c4cc23)c1	-11%
COc1ccc(OC)c(NC(=O)c2ccc(NS(=O)(=O)c3c(C)noc3C)cc2)c1	1%
CC(=O)Nc1ccc(S(=O)(=O)N2CCCN(c3nc(C)cc(C)c3C#N)CC2)cc1	-11%
Cc1cccc(C)c1NC(=O)CNC(=O)c1ccc(COc2ccccc2)cc1	-9%
COc1ccc(CN(C)CC(=O)Nc2ccccc2C(F)(F)F)c(OC)c1	-5%
O=C(Nc1ccc(N2CCOCC2)cc1)C1(S(=O)(=O)c2ccccc2)CC1	-1%
CCCSCCCNC(=O)Cn1cc2c(n1)CCC(C)C2 (stereo not drawn)	-20%
COc1ccccc1C(=O)N1C(CC(=O)Nc2ccc(C)c(C)c2)C(=O)NC2CCCCC21 (stereo not drawn)	-16%
Cc1onc(-c2ccccc2)c1-c1ccnn1C(=O)NC(C)C	-6%
CCOc1cc2c(cc1OCC)C(CC(=O)OC)N(C(=O)Nc1cc(OC)ccc1OC)CC2 (stereo not drawn)	10%
O=C(Oc1cccc(NC2=NS(=O)(=O)c3ccccc32)c1)c1ccncc1	-24%
CCOC(=O)c1c(-c2ccc(Br)cc2)csc1NC(=O)c1ccccc1F	-12%
CC(C)N(C(=O)CSc1nnc(NC(=O)c2cccs2)s1)C(C)C	-3%
CCOC(=O)c1sc(NC(=S)NC(=O)c2ccccc2)nc1C	0%
C=CCN(CC=C)C(=O)Nc1cc(OC)ccc1OC	-11%
COCCCN=CC1=C(O)CC(c2ccccc2)CC1=O (stereo not drawn)	16%
COc1cc(F)c(S(=O)(=O)N2CCOc3ccccc32)cc1OC	16%
CCSc1nnc(N(CCC#N)CCC#N)s1	1%
Cc1nnc(NC(=O)CCSc2ccc(Cl)cc2)s1	7%
O=C(C[C@H]1C/C=C\CC[C@@H](Cc2ccc(F)cc2)C(=O)O[C@@H](c2ccccc2)CNC1=O)N[C@H](CO)Cc1ccccc1	-12%
O=C1CCCCCC1C1(O)C(=O)Nc2ccc(Br)cc21 (stereo not drawn)	-11%
COc1cc(NC(=O)CN2CCN(S(=O)(=O)c3ccc(Br)cc3)CC2)cc(OC)c1	14%
COc1ccccc1/C=N/NC(=O)CNC(=O)c1ccccc1	-9%
COc1ccc2nc(N3CCN(C(=O)c4ccc5ncsc5c4)CC3)sc2c1	4%
Cc1nn(CC2CC2)c(=O)n1-c1ccccc1	-9%
O=C1C(Cl)=C(NCC2CCCO2)C(=O)N1c1ccccc1 (stereo not drawn)	-17%
CN1CCN(NC(=O)c2cc(S(=O)(=O)N3CCOCC3)c(Cl)cc2Cl)CC1	1%

By substructure, the compounds so far with bromine (5)
SMILES	VDR inhibitor
O=C1CN(C(=O)c2ccc(Br)o2)C(c2ccc(F)cc2)c2cc(F)ccc2N1 (stereo not drawn)	0%
C[n+]1ccn(CC(=O)c2ccc(Br)cc2)c1	2%
CCOC(=O)c1c(-c2ccc(Br)cc2)csc1NC(=O)c1ccccc1F	-12%
O=C1CCCCCC1C1(O)C(=O)Nc2ccc(Br)cc21 (stereo not drawn)	-11%
COc1cc(NC(=O)CN2CCN(S(=O)(=O)c3ccc(Br)cc3)CC2)cc(OC)c1	14%

Gathered by group, the entries above containing a cyano group (four)
SMILES	VDR inhibitor
Cc1noc(C(=O)Nc2sc3c(c2C#N)CCC3)c1Cl	-5%
COc1ccc(C=O)cc1Cn1c(C)cc(C)c(C#N)c1=O	-2%
CC(=O)Nc1ccc(S(=O)(=O)N2CCCN(c3nc(C)cc(C)c3C#N)CC2)cc1	-11%
CCSc1nnc(N(CCC#N)CCC#N)s1	1%

New compounds follow
SMILES	VDR inhibitor
Cc1cc(=O)oc2c3c(cc(OCC(=O)NCC(=O)O)c12)OC(C)(C)CC3	-4%
O=C(CN1CCCc2ccccc21)N/N=C/c1ccc(O)cc1O	-12%
O=C(COc1ccccc1Cl)Nc1nc(-c2ccncc2)cs1	-2%
c1coc(CNc2ncnc3nc[nH]c23)c1	-6%&-4%
CC(C)C(NC(=O)c1ccc(F)cc1)C(=O)NCC1CCCO1 (stereo not drawn)	0%
CCOc1c(Nc2ccccc2O)c(=O)c1=O	-8%
CC(=O)Nc1cccc(C(=O)OC(C)C(=O)Nc2ccc(S(=O)(=O)N3CCCC3)cc2)c1 (stereo not drawn)	8%
C/C(Cl)=C/Cn1c(N2CCCC2)nc2c1c(=O)[nH]c(=O)n2C	-7%
CCOC(=O)CSc1nc(N(C)C)nc(N(C)C#N)n1	11%
Cc1ccc(CNC(=O)c2cn(C3CCCCC3)c(=O)c3c2c2ccccc2n3C)o1	79µM*

Shown as a hit in VDR inhibitor, among the entries above:
SMILES	VDR inhibitor
Cc1ccc(CNC(=O)c2cn(C3CCCCC3)c(=O)c3c2c2ccccc2n3C)o1	79µM*

Next section:
SMILES	VDR inhibitor
COc1ccc(OCc2nnc3n2N=C(c2ccccc2)C(CC(=O)O)S3)cc1 (stereo not drawn)	?
CSc1ncc2c(n1)-c1ccccc1N(Cc1ccccc1)S2(=O)=O	-7%
COc1ccc(-c2cnnn2-c2ccc(NC(=O)c3ccccc3OC)cc2)cc1	5%
Cc1ccc(Cl)cc1NC(=O)C(=O)NCC(c1cccnc1)N1CCc2ccccc21 (stereo not drawn)	6%
O=C(CN1C(=O)NC2(CCCC2)C1=O)Nc1cc(Cl)ccc1Oc1ccccc1	-5%
CC(C)CCOc1ccc(Cn2c(=O)oc3ccccc32)cc1	4%
CCCn1c(C)cc(C(=O)COC(=O)c2c(C)nn(-c3ccccc3)c2C)c1C	4%
CCOC(=O)c1cc(NC(=O)c2cccnc2)ccn1	-15%
O=C(C1CCN(c2nc(-c3ccccc3)nc3c2CCC3)CC1)N1CCC(O)CC1	9%
CN(C(=O)COC(=O)CN1C(=O)c2ccccc2C1=O)c1c(N)n(Cc2ccccc2)c(=O)[nH]c1=O	-15%
Cc1cccc(C)c1NC(=O)C(=O)NCC1CCCN1S(=O)(=O)c1ccccc1 (stereo not drawn)	-9%
Cc1cc(N2CCCC2)nc(SCC(=O)c2ccccc2)n1	17%
CC(=O)c1ccc(N2CCN(C(=O)CCn3cnc4onc(-c5ccc(F)cc5)c4c3=O)CC2)cc1	7%
CCC(NC(=O)c1cc(COc2ccc(OC)cc2Cl)on1)c1ccncc1 (stereo not drawn)	?
O=C(Cc1ccccc1)N/N=C/c1cc(Br)cc(Br)c1O	19%
Cc1cc(C)c2c(N)c(C(=O)c3cccc(Cl)c3)sc2n1	-6%
C/C(Cl)=C/CN1C(=O)C2C3C=CC(C3)C2C1=O (stereo not drawn)	-6%
Cc1cc(C)nc(SCc2ccc(C(=O)O)o2)n1	-14%
Cc1ccc(SCCN2CCC(C)CCC2=O)cc1 (stereo not drawn)	-10%
CCOc1ccc(NC(=O)N(C2CCCCC2)C2CCN(C(C)=O)CC2)cc1	-2%
CC(C)OC(=O)C(C)(C)Oc1ccc(C(=O)c2ccc(Cl)cc2)cc1	-9%&-12%&6%&4%
Cc1cc([N+](=O)[O-])nn1CCCC(=O)N1CCN(c2ccccc2)CC1	-7%
Oc1c(C(Nc2nccs2)c2ccc(C(F)(F)F)cc2)ccc2cccnc12 (stereo not drawn)	-19%
CCn1c(=O)cc(OCC(=O)NCCCN2CC(C)CC(C)C2)c2ccccc21 (stereo not drawn)	-3%
COc1ccc(-c2oc3cccnc3c2C#CCO)cc1	16%
Cc1cc2n(n1)SC(Nc1cc(Cl)ccc1Cl)N2 (stereo not drawn)	-18%
COc1cccc(C(=O)Nc2c(C(=O)Nc3ccc(F)cc3)oc3ccccc23)c1OC	1%
C=CCSC1=C(C#N)C(c2ccc(OCC)cc2)CC(=O)N1 (stereo not drawn)	?
N/C(=N\c1nc(CSc2ccccn2)cc(=O)[nH]1)Nc1ccc(Cl)cc1Cl	2%
Cc1ccc(OC(=O)C2CSC3(C)CCC(=O)N23)c(Br)c1 (stereo not drawn)	-3%

Source: PubChem

Only part of the results is shown; count on the stated rates, not on these rows.
